From PubChem
Vaccinia pol inh: vaccinia E9 polymerase processive synthesis inhibitors, primary screen, biochemical, absorbance; Vaccinia virus DNA polymerase (E9) processive complex; in vitro processive DNA synthesis, absorbance read-out; active compounds read low; some inactives read as strong as hits; normalized absorbance, % (test concentration not listed); actives 0.94% (n = 46,000);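 active = replicate mean up to 90% and picked by the depositor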;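 note: 100% = median of the test wells of a plate; 100 nL library stock went into each well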
Active calls of the source: *. Not all compounds are listed; count on the stated rates, not on these rows.

SMILES	Vaccinia pol inh
N#Cc1c(-c2cccnc2)c2c([nH]c1=O)-c1ccccc1CC2	82
CC1(C)CN(c2ccc(N3CC(C)(C)C3=O)cc2)C1=O	103
Cc1cccc(N2CCN(C(=O)Cc3ccc(-n4c(=O)[nH]c5ccsc5c4=O)cc3)CC2)c1C	91
CCCc1cc2c(=O)c(-c3ccccn3)coc2cc1OC	97
CCn1c(SCC(=O)N2CCC(C)CC2)nnc1-c1c[nH]c2ccccc12	101
COC(=O)C1=C(C)NC2=C(C(=O)CC(c3ccc(Cl)cc3)C2)C1c1ccccc1 (centres undefined)	100
CCCN(CCC)C(=O)c1cnn(-c2ccccc2)c1NC(=O)c1ccccc1	99
CCC1Sc2cc(S(=O)(=O)CCC(=O)N3CCCCC3)ccc2NC1=O (centres undefined)	96
CCCCc1c(O)nc(SCC(=O)N2CCCCC2)[nH]c1=O	100
CN1CCN(c2ccccc2NS(=O)(=O)c2ccc3c(c2)SCC(=O)N3)CC1	101
CCc1ccc(NC(=O)c2nn(-c3ccc(C)cc3)c(=O)c3c2c2ccccc2n3C)cc1	100
CC(NC(=O)c1ccc(F)cc1)C(c1cccs1)N1CCN(C)CC1 (centres undefined)	104
COc1ccc(C(=O)NCCc2nnc3ccc(SCC(=O)Nc4ccc(C)cc4C)nn23)cc1	100
O=C(O)CCC(=O)Nc1ccc(-c2csc(-c3ccccc3)n2)cc1	99
CC(C(=O)NC1CCCCCC1)C1Sc2ccccc2N(Cc2ccc(F)cc2)C1=O (centres undefined)	84
CCCCC1CCC(C2CCC(C(=O)O)CC2)CC1 (centres undefined)	101
O=S(=O)(Cc1ccc(C(F)(F)F)cc1)c1ccc(Cl)cc1	97
CSc1nnc(NC(=O)/C=C/c2cccc(F)c2)s1	110
CCn1c(=NC(=O)CSCC(=O)NC2CCCCC2)sc2cc(C(=O)OC)ccc21	98
CS(=O)(=O)Cc1ccc(Oc2ccc(NS(C)(=O)=O)cc2)cc1	92

Overlap with the part before: four entries; new compounds follow.
SMILES	Vaccinia pol inh
O=S(=O)(Cc1ccc(C(F)(F)F)cc1)c1ccc(Cl)cc1	97
CSc1nnc(NC(=O)/C=C/c2cccc(F)c2)s1	110
CCn1c(=NC(=O)CSCC(=O)NC2CCCCC2)sc2cc(C(=O)OC)ccc21	98
CS(=O)(=O)Cc1ccc(Oc2ccc(NS(C)(=O)=O)cc2)cc1	92
Cc1c(C)c(C)c(CSC2=NCCS2)c(C)c1C	98
O=c1ccc(=O)n(-c2ccccc2)[nH]1	97
CC(Oc1ccccc1)C(=O)Nc1ccc(-n2nncc2-c2ccccc2)cc1 (centres undefined)	90
Cc1ccc(S(=O)(=O)N2CCCC2C(=O)NCc2ccccc2Cl)cc1 (centres undefined)	98
COc1ccc(C(=O)NCCc2ccc(O)cc2)c(OC)n1	88
N#Cc1c(-n2cccc2)sc2c1CCCC2	104
CCCCN(C)S(=O)(=O)c1ccc2c(c1)CCN2C(=O)CC	107
CC(C)C(=O)Nc1nc(-c2ccccc2)c(-c2ccccc2)s1	100
Cc1[nH]c(=O)[nH]c(=O)c1S(=O)(=O)NCc1ccccn1	100
CC(C)(C)c1cc(Cl)c(O)c(N=Cc2ccccc2O)c1	100
COC(=O)C1C(=O)C2=C(CC1C)NC(=O)CC2c1cccc(OC)c1 (centres undefined)	94
COc1ccc(N2CCN(C(=O)Cc3nn(C)c(=O)c4ccccc34)CC2)cc1	110
Cc1ccc(-c2ccnc(-c3ccc(O)cc3)n2)cc1	88
O=C(c1ccc2c(c1)N(Cc1ccc(F)cc1)C(=O)/C(=C/c1ccccc1)S2)N1CCCC1	102
Cc1ccccc1N1C(=O)c2ccccc2NC1(C)CC(=O)NCc1ccccc1 (centres undefined)	101
Cc1cc2cc(CNC(=O)CC(C)C)ccc2n1C	92
N#Cc1ccc(CSc2ccccn2)c(Cl)c1	100
N#CCSc1ncccn1	106
CN(C)c1ccc2c3c(ccc(N(C)C)c13)C(=O)OC2	100
CC(C)(Oc1ccc(Cl)cc1)C(=O)NC1CCCCNC1=O (centres undefined)	97
CCOC(=O)c1nn(-c2ccc(OCC)cc2)cc1O	102
Cc1ccc(C(=O)c2oc3ccccc3c2NC(=O)C(C)C)cc1	105
S=C(Nc1ccc(Cl)c(Cl)c1)NC1CCCC1	98
Nc1nc2ccc(CC(=O)O)cc2s1	100
FC(F)(F)Oc1ccc(-n2cccc2)cc1	121
CCOc1ccc(S(=O)(=O)NCC2CCCO2)c2ccccc12 (centres undefined)	100
O=C1CCCC(O)=C1C(C1=C(O)CCCC1=O)c1ccccc1	101
COc1ccc(Cl)cc1NC(=O)CC(NCCc1ccccc1)C(=O)O (centres undefined)	93
CCOC(=O)c1csc(-c2cccs2)n1	94
CCN1CCN(C(=O)c2cc[n+]([O-])cc2)CC1	105
CC(/C=C1\SC(=S)N(CCCC(=O)Nc2cc(C)on2)C1=O)=C\c1ccccc1	92
COc1ccc(C2N(C(=O)c3ccccc3)CCN2C(=O)c2ccc(C)cc2)cc1 (centres undefined)	97
CCCc1cc(=O)oc2cc(OCC(=O)N3CCc4ccccc43)ccc12	82
O=C(c1ccccc1)N(CCN1CCOCC1)C1(C(=O)Nc2ccccc2)CCCCC1	91
Cc1nc(-c2ccccc2OC(F)(F)F)[nH]c(=O)c1Cl	98
C=CCNC1=C2C[C@@H](C)C[C@H](OC)[C@H](O)[C@@H](C)/C=C(\C)[C@H](OC(N)=O)[C@@H](OC)/C=C\C=C(/C)C(=O)NC(=CC1=O)C2=O	101
Cc1cc(I)ccc1NS(=O)(=O)c1cccs1	94
CCCCC(=O)/C=C/n1c(=S)oc2ccccc21	100
CC1=Nc2ccc(C)cc2/C1=C\c1c(N)n2nc(S(=O)(=O)CC(C)C)sc2nc1=O	94
COc1ccc(C(=O)NCc2cn3ccsc3n2)cc1OC	100
Cc1cc2ccccn2c1C(=O)c1ccc(S(=O)(=O)N(C)C)cc1	100
COc1ccc(Cl)c(C(=O)OCC(=O)Nc2ccc(F)cc2)c1	100
Cc1ccc(C(=O)Nc2ccc(-c3cn4c(n3)SCC4)cc2)cc1C	104
Cc1ccc(-n2c(C)nc3sc4c(c3c2=O)CCC4)cc1	100
CCCN(CCC)C(=O)c1sc2nc(-c3ccccc3)cn2c1C	102
CSc1nc2ccccc2n1C(=O)c1cccs1	98
COc1cc(OC)nc(NC(=O)C(C)C)n1	104
COc1ccccc1C(=O)N1CCOCC1	101
CC(c1ccccc1)N(Cc1ccccc1)C(=S)Nc1ccccc1 (centres undefined)	100
O=c1cc(-c2cccs2)[nH][nH]1	100
Next structures
SMILES	Vaccinia pol inh
Oc1ccccc1CNc1ccc(Br)cc1	100
Fc1ccccc1OC1OCCOC1Oc1ccccc1F (centres undefined)	91
CN(CC(=O)O)C(=S)c1ccccc1	98
Cn1ccnc1SCCS(=O)(=O)c1ccccc1	108
COc1cccc(C2=CC(c3cccc(OC)c3)n3ncnc3N2)c1 (centres undefined)	94
COc1cc2[nH]c(=O)n(CCCC(=O)NC3CCCC3)c(=O)c2cc1OC	86
O=C(NCCCN1CCCC1)c1cc2c(Cl)nc3ccccc3c2s1	33*
CCOc1ccc2c(c1)sc(=NC(=O)c1cc3ccccc3cc1OC)n2C	100
CCC(C)N1C(=O)S/C(=C/c2ccc3c(c2)n(C)c(=O)n3C)C1=O (centres undefined)	100
CCC(=Nc1ccc(N)cc1)C1=C(O)CC(C)(C)CC1=O	96
CCCCc1n[nH]c2c1/C(=N\O)CC(c1ccccc1)C2 (centres undefined)	104
O=C1C2CC=CCC2C(=O)N1c1cccc(O)c1 (centres undefined)	97
CN1C(=O)N(C)C2(c3ccccc3)NN3C(=O)CSC3=NC12c1ccccc1 (centres undefined)	100
CCOC(=O)C1=C(C)NC(=O)C(C(N)=O)C12CCCCC2 (centres undefined)	90
O=C(N/C=C/n1cnc2cc(C(F)(F)F)ccc21)c1cccs1	107
CCCC(=O)NC(C)c1nc2ccccc2n1C(C)C (centres undefined)	100
CC(C)Nc1cnn(C23CC4CC(CC(C4)C2)C3)c(=O)c1Cl	106
CCc1ccc(NC(=O)C2CCN(c3nnc(-n4cccc4)s3)CC2)cc1	101
CC1CCCCN1C(=O)CSc1nc(-c2ccccc2)cc(C(F)(F)F)n1 (centres undefined)	92
O=C1c2ccccc2CCC1(CO)CO	115

Brought forward from above: 2 compounds; new compounds follow.
SMILES	Vaccinia pol inh
CC1CCCCN1C(=O)CSc1nc(-c2ccccc2)cc(C(F)(F)F)n1 (centres undefined)	92
O=C1c2ccccc2CCC1(CO)CO	115
O=C(CCSCc1ccc(Cl)cc1)Nc1ccc(F)cc1	92
N#Cc1ccc(C#CCOC(=O)c2ccccc2)cc1	104
CC(=O)Nc1ccc(OCc2ccccc2)cc1	98
COc1ccc2cc3cc(C(=O)NCCC4=CCCCC4)sc3nc2c1	103
CCOc1cccc(=NC2CCCCC2)c2c(C)n(C)c(C)c12	89*
C=C1[C@@H](O)C2O[C@]3(CCC(/C=C/[C@@H](C)[C@@H]4CC(C)=C[C@@]5(O[C@H](C[C@@](C)(O)C(=O)O)CCC5O)O4)O3)CCC2O[C@@H]1C(O)C[C@H](C)C1O[C@@]2(CCCCO2)CC[C@H]1C (some centres undefined)	101
CCCc1ccc(OCC(=O)c2ccc(O)cc2O)cc1	100
O=C(c1ccccc1)c1ccccc1-n1cccc1	99
COCc1cc(OC(=O)N(C)C)nc(-c2ccncc2)n1	104
NC(=S)CN1CCCC1=O	100

Some of these compounds in order of SMILES length, lowest first.
SMILES	Vaccinia pol inh
Cc1cc(I)ccc1NS(=O)(=O)c1cccs1	94
Cc1cc2cc(CNC(=O)CC(C)C)ccc2n1C	92
N#Cc1ccc(C#CCOC(=O)c2ccccc2)cc1	104
O=C(CCSCc1ccc(Cl)cc1)Nc1ccc(F)cc1	92
Cc1ccc(-n2c(C)nc3sc4c(c3c2=O)CCC4)cc1	100
O=C1CCCC(O)=C1C(C1=C(O)CCCC1=O)c1ccccc1	101
COc1ccc(Cl)cc1NC(=O)CC(NCCc1ccccc1)C(=O)O (centres undefined)	93
CN1C(=O)N(C)C2(c3ccccc3)NN3C(=O)CSC3=NC12c1ccccc1 (centres undefined)	100

Carrying on:
SMILES	Vaccinia pol inh
Cc1ccc(NC2=NCCOC2)cc1	101
O=C(O)CNS(=O)(=O)/C=C/c1ccccc1	100
Fc1ccc(C2NCCc3[nH]cnc32)cc1 (centres undefined)	93
CCc1ccc(OCCCn2cc(/C=C3/C(=N)N4C=CSC4=NC3=O)c3ccccc32)cc1	100
CN(C)C(=O)c1cc(F)c(F)c(F)c1F	95
COc1cc(S(=O)(=O)NCc2cccnc2)ccc1Cl	93
COc1ccc(C)cc1Cn1c(S(C)(=O)=O)nc2ccccc21	101
CC(=O)ON1C(C)(C)Cc2noc(N)c2C1(C)C	100
Cc1nn(C)cc1NC(=O)Nc1ccc(F)cc1	104
Cc1ccccc1-c1c(-c2ccc(O)c(C)c2O)n[nH]c1C	99
CC(C)CCNC(=O)c1csc2c1CCCC2	94
Cc1cc(C(=O)Nc2ccc(CN3CCS(=O)(=O)CC3)cc2)no1	91
CC(=O)n1nc(-c2ccc(Cl)cc2)nc1NCc1ccc(F)cc1	111
O=C(COC(=O)c1ccc2ccccc2n1)NC1CC1	98
Cc1nc(SCC(=O)NCc2ccc(Cl)cc2)c(C#N)c(C)c1Cl	100
CN(C(=O)COC(=O)c1c(F)cccc1Cl)C1CCCCC1	95
NNC(=O)c1nnn(-c2nonc2N)c1CN1CCCCC1	98
CC1(C)O[C@@H]2CC3C4C[C@H](F)C5=CC(=O)C=CC5(C)C4C(O)CC3(C)[C@]2(C(=O)CO)O1 (some centres undefined)	92
Oc1cccc(N=Cc2cc(Br)ccc2O)c1	97
O=c1oc2cc(OCc3ccc(Cl)cc3)ccc2c2c1CCC2	100
Cc1c(Cl)cccc1N1C(=O)C=CC1=O	102
CC(C)Cc1ccc(-c2cc(=O)[nH][nH]2)cc1	97
Cc1oc(-c2ccccc2Cl)nc1CSCC(=O)O	100
Cc1ccc2onc(CNC(=O)NC3CCCC(C)C3C)c2c1 (centres undefined)	97
Cc1ccccc1Cn1cc(SCC(=O)N2CCCc3ccccc32)c2ccccc21	100
CCCCN1CCc2[nH]c(=S)[nH]c(=O)c2C1	100
CCc1ccc(O)c(C2(O)C(=O)c3ccccc3C2=O)c1	95
COC(=O)COc1ccc2c(=O)c(-c3ccc(Cl)cc3)coc2c1	100
COc1ccc(/C=C/c2onc3ccccc23)cc1	97
O=C(O)CCCn1nc(C(F)(F)F)c2c1CCCCC2	108

A section taken from the entries so far:
SMILES	Vaccinia pol inh
Cc1c(Cl)cccc1N1C(=O)C=CC1=O	102
CC(C)Cc1ccc(-c2cc(=O)[nH][nH]2)cc1	97
Cc1oc(-c2ccccc2Cl)nc1CSCC(=O)O	100
Cc1ccc2onc(CNC(=O)NC3CCCC(C)C3C)c2c1 (centres undefined)	97

Next part.
SMILES	Vaccinia pol inh
CC1(C)CC(=O)c2c(nn(-c3ccccc3)c2N)C1	100
COc1ccc(-c2nnc(C3CCN(C(=O)c4c(F)cccc4F)CC3)o2)cc1	98
O=C(CNc1ccncc1)c1c[nH]c2ccccc12	84
CN(c1ccc(O)cc1)S(=O)(=O)c1ccccc1	92
C=C(C)C1CCC2(C)OC(=O)N(Cc3ccccc3)C12C (centres undefined)	100
C=CCn1c(CNc2ccc(C)cc2)nnc1SCC(=O)c1ccccc1	96
N#Cc1ccsc1NC(=O)c1ccco1	116
O=C(Oc1ccc(S(=O)(=O)c2ccc(OC(=O)c3cccs3)cc2)cc1)c1cccs1	101
CCOc1cc(/C=C/C(=O)O)ccc1OCC(C)C	98
O=C(Cc1ccc(Cl)cc1)Nc1ccc(-c2nnc3n2CCCCC3)cc1	100
CC(=O)Nc1ccc(C(=O)OCC(=O)c2ccc(Cl)cc2Cl)cc1	99
Nc1ccc(S(=O)(=O)NC2CCCCC2)cc1	100
O=C1O[C@@H]2C[C@H]3C[C@@H]2[C@@H]1[C@H]3C(=O)N1CCCCC1	111
Cn1c(=O)c(=O)n(C)c2cc(S(=O)(=O)CCC(=O)NCc3ccccc3)ccc21	88
CC1=C(C(=O)Nc2cccc(Cl)c2C)C(c2ccc(F)cc2)NC(=S)N1 (centres undefined)	100
CN(C)CCN(Cc1ccccc1)c1ccccn1	101
CCOC(=O)C1CCCN(S(=O)(=O)c2ccccc2)C1 (centres undefined)	100
COc1cc(OC)cc(C2C(C#N)=C(N)OC(N)=C2C#N)c1	100
